LANA-H2B inh – blocks KSHV LANA binding to histone H2A/H2B | Q9QR71 | cell-free LANA-H2A/H2B peptide, fluorescence polarization | inhibition, % (no concentration beside the values) | 320,000 tested, 0.6% active | AID 2629; in the data active = inhibition mostly above about 10%, no sharp cut-off; inactive = mostly below about 6.7%;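 note: stock transfer was 7.5 nL into about 10 µL; 0% = median of vehicle wells and 100% = median of positive control wells; one replicate is shown; the record names a cut of 25% in any replicate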
Beta cell apopt – blocks beta cell apoptosis; INS-1E cytokine-induced death, ATP luminescence, 48 h; percent of positive-control rescue, neutral wells zero; protection from apoptosis, % (no concentration beside the values); 300,000 tested, 0.8% active;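 active = all replicates at 75% or more, or half of them and the mean; inconclusive = half reach 75% but not the mean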;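 note: 0% = cytokine-treated negative control wells and 100% = positive control rescue; higher means more ATP so stronger rescue from cytokine killing; wells of about 40 µL received 100 nL stock; the first replicate is given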
UCH37 inh – blocks the human deubiquitinase UCH37; Q9Y5K5; purified proteasome/UCH37, Ub-AMC cleavage fluorescence; inhibition, % (concentration not given with the values); 330,000 tested, 0.33% active; AID 588478;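 active = mean of two replicates above 20%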;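 note: 0% = compound-free wells with enzyme and 100% = wells lacking proteasome; stock transfer was 100 nL into about 20 µL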
Target sequence (Q9Y5K5 whole entry, looked up): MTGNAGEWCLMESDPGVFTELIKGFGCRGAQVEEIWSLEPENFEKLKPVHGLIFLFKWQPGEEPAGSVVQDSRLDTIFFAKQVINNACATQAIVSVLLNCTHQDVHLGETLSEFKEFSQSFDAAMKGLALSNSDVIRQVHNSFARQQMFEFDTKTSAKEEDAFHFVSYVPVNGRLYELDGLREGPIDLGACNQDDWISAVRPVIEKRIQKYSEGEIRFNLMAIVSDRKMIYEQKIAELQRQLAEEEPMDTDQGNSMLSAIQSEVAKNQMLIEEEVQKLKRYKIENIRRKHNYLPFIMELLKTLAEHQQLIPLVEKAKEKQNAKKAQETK
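Material: Human UCH37 enzyme supplied as purified proteasome complex | Schedule: 30 min preincubation with enzyme, 25 min cleavage at room temperature | Detection: AMC fluorescence 355/460 nm | Measure: % inhibition of Ub-AMC cleavage fluorescence | Controls: Wells without proteasome as full block, compound-free enzyme plus substrate as uninhibited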
Calb FLC – affects C. albicans growth with fluconazole; growth inhibition, % (concentration not given with the values); C. albicans CaCi-2 (fluconazole-resistant clinical isolate) + fluconazole, Alamar Blue growth, 48 h; 300,000 tested, 0.57% active;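 active = most replicates above 75%; inconclusive = exactly half above 75%; inactive = most below 75%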;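 note: all wells also contain fluconazole at 8 µg/ml as a sub-toxic cotreatment; 0% = median of DMSO wells and 100% = median of geldanamycin control wells; wells of about 8 µL received 7.5 nL stock; the first replicate is given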
Bfl-1 A1 inh – inhibitors of the anti-apoptotic protein A1, read as caspase activation; MEF A1-2A-BIM cells, Caspase-Glo 3/7 luminescence, 3 h; percent of clofoctol response, vehicle zero; caspase activation, % (concentration not given with the values); 330,000 tested, 0.066% active; AID 2462;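 active = over half of replicate activation scores above 10%, or exactly half above 10 with the replicate mean above 10; inconclusive = replicate mean below 10 yet half the replicates above 10; inactive = over half of replicates below 10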;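 note: wells of about 30 µL received 50 nL stock; many hits fall short of the cut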
RanGTP-Impb inh – inhibitors of RanGTP-importin-beta interaction, primary screen, biochemical, FRET, CFP-Ran, YFP-importin-beta, homogeneous; cell-free CFP-Ran/YFP-importin-beta FRET ratio; inhibition, % (test concentration not listed); 300,000 tested, 1.1% active; AID 2216;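 active = most replicates above 15%; inconclusive = exactly half above 15%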;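 note: 0% = DMSO wells and 100% = Ran loaded with GDP instead of GTP; wells of about 40 µL received 100 nL stock; the first replicate is given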
T cruzi repl – T. cruzi replication inhibition; T. cruzi beta-gal in NIH3T3, luminescence, 90 h; inhibition, % (concentration not given with the values); 300,000 tested, 1.4% active; AID 1885;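 active = mean inhibition across valid replicates above about 55%, limit read from the data; inconclusive = mean below that limit but half or more replicates reach it; inactive = mean below it, under half of replicates reach it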;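 note: signal also drops with host cell toxicity which is not excluded here; 0% = plate median of DMSO wells and 100% = zero luminescence signal; higher percent means less beta-gal luminescence so fewer parasites; stock transfer was 50 nL into about 50 µL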
Beta2AR agonist – agonists of human beta-2 adrenergic receptor inducing internalization; P07550; Am2.2-beta2AR cells, FAP receptor internalization, flow cytometry; reference of the scale not given here; response, % (concentration not given with the values); 340,000 tested, 0.43% active; AID 504454;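 active = response above a set limit, near 3 SD of response in nonfluorescent compounds, cut at about 42% in these data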;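 note: stock transfer was 100 nL into about 11 µL; a reference agonist was the positive control; negative values mostly stem from fluorescent compounds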
Target sequence (P07550 whole entry, looked up): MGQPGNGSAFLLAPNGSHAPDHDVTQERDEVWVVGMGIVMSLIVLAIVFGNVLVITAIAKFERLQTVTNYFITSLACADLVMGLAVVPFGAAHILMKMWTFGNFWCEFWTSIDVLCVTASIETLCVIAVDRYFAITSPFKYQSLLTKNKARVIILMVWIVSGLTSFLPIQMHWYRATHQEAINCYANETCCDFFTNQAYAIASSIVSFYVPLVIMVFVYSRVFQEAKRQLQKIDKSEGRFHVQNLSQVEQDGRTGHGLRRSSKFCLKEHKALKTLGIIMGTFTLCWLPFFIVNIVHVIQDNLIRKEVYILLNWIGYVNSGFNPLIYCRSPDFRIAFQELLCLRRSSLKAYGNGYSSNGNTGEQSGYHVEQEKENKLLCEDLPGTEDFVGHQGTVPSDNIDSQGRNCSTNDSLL
An asterisk follows results filed as active; ? = inconclusive; nt = not tested or not shown.

SMILES	LANA-H2B inh	Beta cell apopt	UCH37 inh	Calb FLC	Bfl-1 A1 inh	RanGTP-Impb inh	T cruzi repl	Beta2AR agonist
CCCc1ccc2oc(C(=O)NCc3nnc(C)o3)c(C)c2c1	-3.7	1	2.6	8	-3.5	1.4	-1	-2
Cc1ccc(C)c(NC(=S)NNC(=O)c2sccc2C)c1	-0.3	5	4.5	17	-3.9	0.8	-10	0
CC(=O)c1c(O)c(C)c(-c2ccccc2)n(-c2ccccc2)c1=O	-0.8	nt	-3.5	48	0.3	2.6	-13	2
O=C(O)C1C2C=CC(C2)C1C(=O)NCc1ccccn1 (stereo not given)	3.5	-7	nt	-8	0.5	-3.9	-6	nt
O=S(=O)(NCC(c1cccs1)N1CCc2ccccc2C1)c1ccccc1 (stereo not given)	-9.1	nt	2.0	1	0.6	1.0	19	0
COc1cc2[nH]c(Cl)c([N+](=O)[O-])c2cc1OC	1.7	-9	-24	-3	-0.6	19*	6	-3
Cc1c(NC(=O)COC(=O)CSc2ccc([N+](=O)[O-])cc2)c(=O)n(-c2ccccc2)n1C	-1.0	-6	12	nt	0.1	nt	nt	-6
COc1ccc(S(=O)(=O)N(CC(=O)N/N=C/c2cccs2)c2ccc(C)cc2)cc1OC	-0.3	5	nt	-5	0.4	-1.9	15	-14
CCCOc1ccc(/C=N/Nc2ccccn2)cc1OC	1.0	-5	nt	-8	-6.7	0.9	12	5
COc1ccc(Cl)cc1S(=O)(=O)N1CCC(C(=O)NCC2CCCO2)CC1 (stereo not given)	-3.9	-3	1.2	0	0.6	1.8	-4	7
CCOC(=O)C1=C(C)Nc2nc(C)nn2C1c1ccc(OCC)c(OC)c1 (stereo not given)	-0.4	-1	4.6	5	-0.2	-3.0	-16	-4
CC(C(=O)O)n1cnc2sc3c(c2c1=O)CCCC3 (stereo not given)	0.0	0	-0.1	-14	-0.8	nt	-12	-10
O=C(c1cc(COc2c(F)cccc2F)on1)N1CCC(c2ccccc2Cl)C1 (stereo not given)	6.7	-6	3.9	?	-0.3	-1.6	15	-11
CCCCN(C)C(=O)C1CCC(CNS(=O)(=O)c2ccc3c(c2)CC(C)N3C(=O)C2CC2)CC1 (stereo not given)	0.8	10	-0.5	-14	0.1	0.6	9	-18
O=C(NCC1CCCO1)c1ccc(COc2ccc(F)cc2)o1 (stereo not given)	5.8	-25	5.8	-2	-0.3	2.5	-12	-5
S=C(c1ccc(-c2ccccc2)o1)N1CCCCC1	5.0	-2	7.8	-16	-2.8	3.9	3	-11
Cc1ccc(Cn2c(=O)c3c(ncn3C)n(C)c2=O)cc1	-6.7	2	5.2	5	-0.3	-0.6	-2	-9
CN(CC(=O)Nc1ccccc1C(=O)N1CCCC1)S(=O)(=O)c1ccc(Cl)cc1	-4.9	-1	1.4	12	?	1.1	1	-2
CC[C@@H](C)C(NC(=O)OC(C)(C)C)c1cn([C@@H](Cc2cc3ccccc3[nH]2)C(=O)N2CCN(C(=O)OC(C)(C)C)CC2)nn1 (stereo not given in full)	-5.6	3	1.9	21	-0.3	-0.4	21	3
O=C(COC(=O)[C@H](Cc1ccccc1)NC(=O)c1ccco1)NCc1ccccc1	0.7	-10	1.8	-21	0.0	-1.0	-11	3
COc1ccc(OC)c(-c2csc(NC(=O)Cc3ccccc3F)n2)c1	-1.6	2	3.9	-15	0.0	4.1	11	1
CCCCOC(=O)c1sc2nc(N3CCOCC3)c3c(c2c1N)CC(C)(C)OC3	5.3	-8	-202	2	-0.1	-2.3	-4	-3
O=C(c1ccc2snnc2c1)N1CCSCC1	-0.9	-6	1.6	0	0.7	6.9	-5	-2
COCCCNC(=S)N1CCN(S(=O)(=O)c2ccc(OC)cc2)CC1	5.3	5	3.5	0	-0.5	-1.1	-14	0
Cc1cc(NC(=O)CSc2nc3ccccc3n2CC(C)C)no1	-7.6	-3	nt	-7	0.6	-1.0	2	5
CCC(C)[C@H](NC(=O)N1CCN(C)CC1)C(=O)OC (stereo not given in full)	-2.0	-2	3.2	nt	-0.3	nt	nt	-6
COC(=O)C1(S(=O)(=O)C2(C(=O)OC)CCCC2)CCCC1	1.7	1	-2.4	-11	0.1	3.9	-11	4
CC(CCc1ccco1)NC(=O)CCc1nnc2ccc(NCc3ccccc3)nn12 (stereo not given)	2.5	nt	0.4	-1	-0.4	-0.6	10	5
O=C(O)C1CCN(c2nc(-c3ccccc3)c3cc(Br)ccc3n2)CC1	0.3	-3	-24	-2	0.9	?	10	2
Cc1ccc(-c2nnc(N3CCN(C(=O)CN4C(=O)c5ccccc5C4=O)CC3)c3ccccc23)cc1	-0.1	nt	0.4	-5	-0.8	?	-9	-6
CC(C)Cn1c(N)c(C(=O)CSc2nc3ccccc3c(=O)n2CCCN2CCOCC2)c(=O)n(C)c1=O	-5.8	-2	nt	-31	0.2	3.3	55*	nt
Cc1c(NC(=O)CSC2=C(C#N)C(c3ccccc3F)CC(=O)N2)c(=O)n(-c2ccccc2)n1C (stereo not given)	-1.8	-3	-1.1	4	0.2	0.3	-16	-5
COC(=O)C1=CN(c2ccc(F)cc2)C=C(C(=O)OC)C1c1cccc([N+](=O)[O-])c1	0.0	16	3.8	24	-1.0	-0.1	20	7
Cc1cc(NC(=O)CN2CCC(n3nnc4cc(C(F)(F)F)ccc43)CC2)no1	0.9	3	3.9	37	0.8	-0.6	-1	-1
Cc1ccccc1CN(C)C(=O)COC(=O)CSc1ccc([N+](=O)[O-])cc1	-0.6	-12	4.8	3	0.0	-1.0	-5	-7
CC(C)Cn1c(=O)c2ccccc2n2c(CCC(=O)NCC3CCCO3)nnc12 (stereo not given)	-6.2	-5	4.0	?	0.3	0.8	1	-12
Cc1nnc(SCCC(C)C)[nH]c1=O	2.3	-5	6.4	-21	0.9	0.4	-8	-8
Cc1nc2sc(C(=O)O)c(N)c2c2c1COC(C)(C)C2	-3.3	-1	nt	6	?	0.4	-2	-1
CCCC(=O)Nc1cccc(C(=O)Nc2ccccc2OCC)c1	1.1	nt	1.2	-1	0.8	1.0	-3	nt
CCN(CC)CCNC(=O)c1ccc(NC(=O)c2ccc(F)cc2F)cc1	2.3	6	1.9	-10	-2.0	-1.4	-9	-7
Cc1ccc(C)c(NS(=O)(=O)c2cc(C(=O)N3CCCC3)ccc2Cl)c1	-1.1	nt	0.1	3	-0.4	-5.9	10	-10
O=C(O)c1ccccc1SCC(=O)N1CCc2ccccc21	3.4	0	2.9	-5	-1.2	2.4	-9	5
O=C1[C@H]2[C@@H](c3ccc(Cl)cc3)N3C(=O)N(c4cccc(Br)c4)C(=O)[C@@]3(Cc3ccc(Cl)cc3)[C@H]2C(=O)N1C1CCCCC1	3.2	15	2.5	2	-0.4	5.7	65*	3
COCCNc1nc(SC)nc2sc3c(c12)CCN(C)C3	5.2	-6	-129	-8	-0.3	-1.7	18	-3
CCOC(=O)c1nc(NCc2ccccc2)sc1C	0.5	2	-0.3	0	0.1	1.2	11	8
COc1cccc(-c2nc3n(n2)C(c2cccs2)C(C(=O)Nc2cccnc2)=C(C)N3)c1 (stereo not given)	3.7	1	4.0	4	1.0	-1.1	-2	-7
COc1ccccc1-c1nnc(NC(=O)c2ccc(S(=O)(=O)N(C)C)cc2)o1	0.0	-1	2.9	-5	-0.5	0.6	-11	11
COc1ccc(CNS(=O)(=O)c2ccc3c(c2)CCN3C(=O)C2CC2)cc1	-2.5	nt	3.0	-2	0.7	?	-19	-23
COc1cc2ccccc2cc1C(=O)N1CCCC(C(F)(F)F)C1 (stereo not given)	-1.4	-2	-3.3	nt	-0.8	nt	nt	6
O=C(NC1CCN(Cc2ccccc2)C1)c1cc(S(=O)(=O)N2CCOCC2)ccc1Cl (stereo not given)	-3.2	2	4.1	nt	1.2	nt	nt	-3
Cc1cccc(NC(=O)CC2Nc3cccc4cccc(c34)NC2=O)c1 (stereo not given)	3.8	-1	-11	-2	0.9	-0.3	-1	2
COc1cc(CC(=O)NCCc2ccc(OCc3ccccc3)cc2)c([N+](=O)[O-])cc1OC	6.8	3	2.2	-7	-0.2	-1.2	8	-7
Cc1ccc(C2CN=NC23CCc2ccccc2C3=O)cc1 (stereo not given)	-3.1	-8	6.5	10	-0.6	-0.6	1	-6
c1ccc(-c2csc3ncnc(N4CCc5ccccc5C4)c23)cc1	4.7	2	-0.3	16	0.2	4.8	23	0
CCOC(=O)c1ccc(NC(=O)C2CCN(S(=O)(=O)CC)CC2)cc1	2.0	-4	3.8	-16	0.2	0.7	-8	0
CC(=O)Nc1cc(C(=O)OCC(=O)c2ccc(C)cc2)ccc1C	0.5	-3	1.5	3	-0.4	-1.7	-3	-1
O=C(On1c(-c2ccccc2)nc2ccccc2c1=O)c1ccco1	4.0	0	1.3	11	0.3	4.1	-3	2
CC(C)n1c(SCC(=O)N2CCN(C(=O)c3ccco3)CC2)nc2c1c(=O)n(C)c(=O)n2C	3.3	0	2.9	0	0.1	1.6	-4	-5
Cc1ccc(C(=O)C[n+]2ccc(-c3nnc4n3CCC4)cc2)cc1	1.6	-2	-4.0	?	0.0	0.0	-12	17
CC(C)NC(=O)N(C)C[C@H]1Oc2c(NC(=O)C3CC3)cccc2C(=O)N([C@H](C)CO)C[C@@H]1C	-2.8	-2	2.8	nt	1.0	nt	nt	3

3 entries already listed, sorted by heavy-atom count, rising.
SMILES	LANA-H2B inh	Beta cell apopt	UCH37 inh	Calb FLC	Bfl-1 A1 inh	RanGTP-Impb inh	T cruzi repl	Beta2AR agonist
Cc1ccc(C2CN=NC23CCc2ccccc2C3=O)cc1 (stereo not given)	-3.1	-8	6.5	10	-0.6	-0.6	1	-6
O=C(On1c(-c2ccccc2)nc2ccccc2c1=O)c1ccco1	4.0	0	1.3	11	0.3	4.1	-3	2
Cc1cccc(NC(=O)CC2Nc3cccc4cccc(c34)NC2=O)c1 (stereo not given)	3.8	-1	-11	-2	0.9	-0.3	-1	2

Next section
SMILES	LANA-H2B inh	Beta cell apopt	UCH37 inh	Calb FLC	Bfl-1 A1 inh	RanGTP-Impb inh	T cruzi repl	Beta2AR agonist
CCC1CCC2(CC1)SCC(=O)N2c1ccccc1 (stereo not given)	-6.7	-7	-0.1	4	-0.3	-1.8	-17	-3
CCOC(=O)Cn1nnnc1C(CC)N(Cc1ccccc1)Cc1cc2cc(C)ccc2[nH]c1=O (stereo not given)	-0.8	3	-1.3	-7	0.5	-2.3	20	10
Nc1nnc(CC(=O)N/N=C/c2ccc(-c3ccccc3Cl)o2)s1	-0.3	-6	nt	20	-0.9	4.2	-1	15
COc1ccc(-n2nc(C(=O)N3CCC(C#N)CC3)c3c4ccccc4n(C)c3c2=O)cc1	-1.3	4	-8.7	-2	0.7	6.6	8	1
Cn1cccc2[nH]c(=O)nc1-2	-0.8	-11	-16	-3	0.7	4.5	0	-5
O=C(COC(=O)c1ccc([N+](=O)[O-])s1)Nc1ccccc1	nt	-6	60*	-1	-0.1	-0.5	11	-2
COCCn1nnnc1C(c1ccccc1OC)N1CCN(C(=O)c2ccco2)CC1 (stereo not given)	-3.5	0	1.9	-3	-0.3	1.1	-14	-6
COc1ccc2occ(C(=O)c3ccccc3)c2c1	-2.8	-1	4.7	-18	-3.3	-2.3	-26	3
CCOC(=O)N1CCN(C(=O)CN2C(=O)CC(C)(C)S(=O)(=O)c3ccccc32)CC1	2.5	-4	2.1	2	1.2	-0.5	3	-2
